S aureus helic = blocks Staphylococcus aureus DNA helicase. purified S. aureus helicase, fluorescence unwinding assay; about half of the hits fall short of the stated cut. actives 0.05% (n = 120,000). inhibition, %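 (tested at about 80 µM)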;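 active = both duplicates at 50% or more, or one of them with a favoured structure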;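 note: 0% = mean of negative control wells and 100% = mean of positive control wells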
MgrA-DNA mod = modulators of Staphylococcus aureus MgrA DNA binding | fluorescence polarization | inhibition, %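 (about 10 µg/mL by stock and volumes)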 | actives 0.13% (n = 84,000);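 active = above 50% in either of two replicates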;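 note: 0% = protein plus DNA without compound and 100% = DNA alone without protein; higher means less MgrA bound to DNA so lower polarization; one replicate is shown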
* marks the source's active call; other numbers are inactive results; / = no result given; & = joins results of further samples.

smiles	S aureus helic	MgrA-DNA mod
O=C(Nc1cccc(Cl)c1)C1=CC=CN2CCS(=O)(=O)N=C12	-9	/
CCC(C)NC(=O)c1ccc(NC2=NC3CS(=O)(=O)CC3S2)cc1 (stereo not drawn)	-16	0.6
CCOC(=O)C1=C(O)C(=O)N(Cc2ccco2)C1	/	-2.7
Cc1oc2cc(O)ccc2c(=O)c1-c1nc2ccccc2n1C	/	-0.4
O=S(=O)(c1ccccc1)N1CCN(c2nc3ccc(Cl)cc3s2)CC1	/	0.2
COC(CNC(=S)Nc1cccc(C)c1)OC	-2	-0.3
CC1CCCC/C1=N\NC(=O)CC#N (stereo not drawn)	1	/
Cc1c(-c2ccccc2)[n+](=O)c2c(n1[O-])CCC2	9	/
Cc1cc(C(=O)NCCCN2CCN(c3cc(Cl)ccc3C)CC2)n(-c2ccccc2)n1	9	/
COC(=O)CSc1nc(C(C)(C)C)cc(C(F)(F)F)n1	2	3.5
CN(C(=O)COc1cccc(Br)c1)C1CCS(=O)(=O)C1 (stereo not drawn)	3&-15	/
CC(C)Cc1ccc(CC(=O)O)cc1	3	/
CCOC(=O)c1c[nH]c2ccc(Cl)cc2c1=O	-5	1.1
N#C/C(=C\c1cn(-c2ccccc2)nc1-c1cccs1)c1ccc(C#N)cc1	12	-0.6
CCSc1nnc(NC(=O)/C=C/c2ccccc2)s1	10	1.6
CSc1nnc2c3ccccc3c3ccccc3c2n1	/	-0.2
CCc1ccccc1NC(=O)CSc1nc2ncccc2[nH]1	5	-0.2
COc1cccc(NC2SC(=O)N(c3ccccc3)C2=O)c1 (stereo not drawn)	4	/
c1cc2nncn2nc1N1CCCCC1	16	/
COc1ccccc1C(=O)CSC1=NCCS1	8	/
CC(C(=O)N1CCCCC1)N1CCC(N2CCCCC2)CC1 (stereo not drawn)	4	13
O=S(=O)(NCCC12CC3CC(CC(C3)C1)C2)c1cc(Cl)ccc1Cl	11	-1.6
CCCCS(=O)(=O)NCc1ccc(OC)c(OC)c1	-15	/
O=C(CCc1cc(Cl)no1)N1CCC(c2c[nH]c3ccccc23)(c2c[nH]c3ccccc23)CC1	17	/
CCOC(=O)N1CCN(Cc2ccc(C(=O)Nc3ccccc3)cc2)CC1	8	/
CCCN(C(=O)[C@H](Cc1ccccc1)N1C(=O)c2ccccc2C1=O)C1CCS(=O)(=O)C1 (stereo partly drawn)	4	/
Cc1ccsc1/C=N/N1CCN(c2ccccc2)CC1	16	/
Cc1[nH]nc2nc3c(c(-c4cc(C)n(C5CCCC5)c4C)c12)C(=O)CCC3	-21	/
N#Cc1ccc(C(=O)NCc2ccccc2)cc1	11	/
O=C(CSc1ncnc2nc[nH]c12)NCCc1ccccc1	10	-2.0
Cc1oc2ncn(C)c(=O)c2c1C(=O)N(C)c1ccc(F)cc1	-27	/
CNS(=O)(=O)c1ccc2c(c1)C(=NO)c1cc(S(=O)(=O)NC)ccc1-2	7	-1.5
Nc1c(-c2nc(-c3ccccc3)cs2)c2ccccn2c1C(=O)c1ccccc1	1	4.2
Cc1ccc(C)c(N2CCN(CCCNC(=O)Nc3ccc(F)c(Cl)c3)CC2)c1	7	/
Cc1ccc(C(=O)N2CCC(NC(=O)Cc3ccccc3)CC2)cc1	/	-1.1
COc1ccc2nc(C)cc(Cl)c2c1	5	-3.2
CCOC(=O)CCCN1c2ccccc2CCC1C(=O)OCC (stereo not drawn)	0	-1.6
CCOc1cc(-n2cnnn2)c(OCC)cc1N	-14	/
Cc1cc(N2CCC(C(N)=O)CC2)nc2c(C(C)C)cccc12	19	/
N#CCOc1ccc2ccccc2c1	/	2.5
CCCc1cc(=O)n2[nH]c(NC(=O)c3ccccc3)nc2n1	14	/
CC(C)CNC(=O)CSc1n[nH]c(-c2ccc(Br)cc2)n1	30	/
O=C(/C=C/c1ccco1)OCc1c(F)cccc1Cl	9	/
Cc1[nH]c(=O)c(C#N)c(C)c1CCC(=O)N1CCc2ccccc21	-5	/
CC(O)CNc1ncnc2c1c(-c1ccccc1)cn2-c1ccccc1 (stereo not drawn)	-11	/
O=C(Nc1ccc(Cl)cc1)c1cccnc1OCC(F)(F)F	/	-1.8
CC1CCCCC1NC(=O)CCn1c(=O)sc2ccccc21 (stereo not drawn)	6	/
Cc1cc(NC(=O)c2ccc3c(c2)S(=O)(=O)c2ccccc2C3=O)no1	-1	/
CCC(=O)NNc1ncnc2ccccc12	-2	/
CCOC(=O)COc1ccc(C2CC(C)=NN2c2ccccc2)cc1 (stereo not drawn)	12	0.2
N#Cc1ccc(C=Nc2ccc(N)c(Cl)c2)cc1	4	0.6
CCOC(=O)c1[nH]c(C)c(C(=O)OCC(=O)N2CCc3ccccc32)c1C	5	/
CC(CS(=O)(=O)c1ccc2c(c1)NC(=O)CS2)C(=O)N1CCCCC1 (stereo not drawn)	17	/
CC(C)CCn1c(=O)c2ccccc2n2c(CSC(C)c3nc4ccccc4c(=O)[nH]3)nnc12 (stereo not drawn)	-5	/
CCOC(=O)C1=C(C)Nc2[nH]c(=O)[nH]c(=O)c2C1c1ccccc1 (stereo not drawn)	5	/
COc1ccc(C(CC(=O)NC2CCCC2)N2Cc3ccccc3C2=O)cc1OC (stereo not drawn)	0	/
Cn1nccc1C(N)c1ccccc1 (stereo not drawn)	-3	-0.7
Nc1ccc(Cl)cc1/C(=N/O)c1ccccc1	/	1.2
O=C(NCC(F)(F)F)c1cc2ccccc2cc1O	-1	/
O=c1[nH]c(=S)[nH]cc1S(=O)(=O)c1ccc(Cl)cc1	-34	/

Additional results follow:
smiles	S aureus helic	MgrA-DNA mod
CNc1ccccc1C(C)(C)c1cc(C)[nH]n1	22	2.6
COC(=O)C(C)Sc1nc(-c2ccc(OC)cc2)nc2c1c(=O)n(C)c(=O)n2C (stereo not drawn)	9	/
O=C(O)/C=C/C(=O)N1CCN(c2ccc(F)cc2)CC1	5	/
Cc1c(-c2ccccc2)nc2ccccc2c1C(=O)OCC(=O)N(C)C	-16	/
O=C(Cc1ccccc1)NO	/	2.1
O=C(c1ccccc1Cl)n1cnc2ccccc21	20	/
CN(C)S(=O)(=O)c1ccc(S(=O)(=O)N2CCC(O)CC2)cc1	9	4.1
COc1ccc(NC(=O)c2cn(-c3ccccc3)nc2SC)cc1	-5	/
O=C1CC(c2cccc(Oc3ccccc3)c2)NC(=O)N1CN1CCN(c2ccccc2)CC1 (stereo not drawn)	8	/
CN=c1scc(-c2cc(OC)ccc2OC)n1/N=C1\CCc2ccccc21	-11	/
C=C1Cn2c(nnc2-c2ccc(Cl)cc2)S1	-4	-0.4
Clc1ccc(-c2nc3ccccc3o2)c(Cl)c1	1	/
O=C(O)c1cnc(SCc2ccccc2)[nH]c1=O	-2	2.7
NC(=O)c1nn(Cc2ccccc2)c(=O)c2ccccc12	-4	/
COc1ccccc1C1CC(c2ccc(Br)cc2)=NN1C(C)=O (stereo not drawn)	/	-1.3
O=c1c2ccccc2nc2c3ccccc3c(SCc3ccccc3)nn12	2	/
O=C(O)CC(F)(F)CC(=O)O	15	/
O=C(CCS(=O)(=O)c1cccc2nsnc12)NC1CCCC1	23	/
CS(=O)(=O)CCC(C(=O)n1nnc2ccccc21)N1C(=O)c2ccccc2C1=O (stereo not drawn)	16	0.4
CN(C)/N=C/c1ccc(C(=O)NC(=O)C(F)(F)F)o1	-6	/
N/C(Cc1cccc2ccccc12)=N\OC(=O)N1CCOCC1	-75	/
O=C(c1cccs1)N1CCCn2c(SCc3ccccc3Cl)nnc21	3	/
N#CCC(=O)Nc1cccc(Cl)c1	/	0.6
Cc1cc(C)cc(NCCC(=O)O)c1	-23	-2.4
CC(C)n1c(SCC(=O)c2ccc3c(c2)NC(=O)CO3)nc2cc(Cl)ccc2c1=O	3	/
Cc1ccc(C(=O)N/N=C/c2ccc(O)c(O)c2O)c(C)c1	23	/
COC(=O)c1nnn(CC(=O)NCc2ccc3c(c2)OCO3)c1C(=O)OC	26	/
O=C(O)CCCC(=O)N1CCN(c2nc(-c3ccccc3)c3ccccc3n2)CC1	-34	/
COc1ccc(NC(=O)CSc2nc(C)cc(=O)[nH]2)cc1	1	/
Cc1nccc(-c2sc(-c3cccs3)nc2C)n1	/	0.4
COc1ccc(-n2c(C)cc(=O)cc2C)cc1	5	0.8
CN1CCN(c2nnc(-c3ccccc3)c3ccccc23)CC1	20	/
C=CCn1c(SCC(=O)Nc2ccccc2C(=O)NC2CCCC2)nnc1-c1ccoc1C	5	/
CCC[C@@H]1C[C@@H](C(=O)N[C@H]([C@@H](C)O)[C@H]2O[C@H](SC)[C@H](O)[C@@H](O)C2O)N(C)C1 (stereo partly drawn)	/	-2.5
CC(Sc1ccccc1)C(=O)Nc1ccc(Cl)cc1 (stereo not drawn)	-7	-0.6
CCCCCn1c(SCC(=O)c2ccccc2)nc2cc(C(=O)NCc3ccco3)ccc2c1=O	7	/

Random excerpt: three entries already listed.
smiles	S aureus helic	MgrA-DNA mod
COC(=O)c1nnn(CC(=O)NCc2ccc3c(c2)OCO3)c1C(=O)OC	26	/
Cc1ccc(C(=O)N/N=C/c2ccc(O)c(O)c2O)c(C)c1	23	/
CCC[C@@H]1C[C@@H](C(=O)N[C@H]([C@@H](C)O)[C@H]2O[C@H](SC)[C@H](O)[C@@H](O)C2O)N(C)C1 (stereo partly drawn)	/	-2.5

Other results follow.
mol	S aureus helic	MgrA-DNA mod
CCCOc1ccc(CNC(=S)NCc2ccc(OC(C)C)cc2)cc1	13	0.8
COc1cc(/C=C2\N=C(c3cc([N+](=O)[O-])ccc3Cl)OC2=O)cc(Br)c1OC(C)=O	/	0.0
COc1ccc(Nc2nc(C)cc(=O)[nH]2)cc1	/	-0.7
S=c1nc(Cc2ccccc2)[nH][nH]1	4	2.5
CC(C)(c1ccccc1)c1ccc(OCC(=O)NC2CCCC2)cc1	12	2.9
COC(=O)c1ccc(CNC(=O)C2CC2C)cc1 (stereo not drawn)	-4	/
O=C(O)CCCN1C(=O)CNC1=O	-1	-5.0
CCSc1nc(=O)[nH]c2c1CCC2	7	/
CCOc1ccccc1C1C=CCC1 (stereo not drawn)	-5	-3.0
c1ccc(CSc2ccc3nnc(-c4ccccn4)n3n2)cc1	-5	0.8
c1ccc(-c2ccc3ccccc3n2)nc1	-5	-0.9
CNC(=S)N(CCc1c(C)[nH]c2ccccc12)Cc1cc(OC)c(OC)c(OC)c1	7	-0.5
CC(=O)Nc1nonc1N1CCCC1=O	5	-0.9
COc1cc(N/C=C(\C#N)c2nc(-c3cc4cc(Br)ccc4oc3=O)cs2)c(OC)cc1Cl	/	-2.3
CSc1nc2ccccc2n1CN(C)Cc1ccc(Cl)s1	-8	/
O=C(Nc1cccnc1)c1cc(C2CC2)on1	14	/
CCCCOc1cccc(N/C=C(/C#N)c2nc(-c3cc4cc(Br)ccc4oc3=O)cs2)c1	/	-0.5
CCC(=O)N(CC)Cc1cc2ccccc2[nH]c1=O	3	-1.3
COc1cc(/C=N/N2CCCCC2)ccc1OC(=O)c1cccnc1	6	/
CN(CCc1ccccn1)S(=O)(=O)c1ccc2c3c(cccc13)C(=O)N2	12	/
Cc1cc2c(c(=O)[nH]1)C(c1ccncc1)C(C#N)=C(N)O2 (stereo not drawn)	5	/
O=C(c1cc(-c2ccc(Cl)cc2)n[nH]1)N1CCCC1	-33	/
O=C(O)c1sccc1S(=O)(=O)N1CCN(c2ncc(C(F)(F)F)cc2Cl)CC1	-15	/
CCOC(=O)c1ccc(Cl)c(N=Cc2ccccc2O)c1	/	-3.0
CN=C1S/C(=C\c2ccc(N3CCCC3)cc2)C(=O)N1C	-5	2.9
CC1CCN(CCNS(=O)(=O)c2csc(C(N)=O)c2)CC1	-3	/
COC(CNC(=O)c1ccc2c(c1)ncn2C1CCCCCC1)OC	0	-0.2
CCC(C(=O)NCC1CCCO1)c1ccccc1 (stereo not drawn)	13	0.1
CCn1cnc2cc(NC(=O)c3cc(OC)c(OC)c(OC)c3)ccc21	2	-2.4
COC(=O)c1cc(S(=O)(=O)NCc2ccc(S(N)(=O)=O)cc2)oc1C	-12	/
CC1CCN(S(=O)(=O)c2cn(CC(=O)N3CC(C)CC(C)C3)c(=O)c3ccccc23)CC1 (stereo not drawn)	32	/
O=C1c2ccccc2C(=O)N1CN1c2cccc3cccc(c23)S1(=O)=O	-1	/
CC(=O)Nc1cccc(SSc2cccc(NC(C)=O)c2)c1	10	1.6
CN(C(=O)Cn1nc(Cc2cccnc2)c2ccccc2c1=O)c1ccccc1	11	/
NC(=O)CSc1nnc(NC(=O)Cc2cccs2)s1	11	/
COc1ccccc1OCCNC(=O)C1CCCCC1	2	-3.9

A few values from above:
Reading for `CN(C(=O)Cn1nc(Cc2cccnc2)c2ccccc2c1=O)c1ccccc1` under S aureus helic: 11
Reading for `CC1CCN(S(=O)(=O)c2cn(CC(=O)N3CC(C)CC(C)C3)c(=O)c3ccccc23)CC1` (stereo not drawn) under S aureus helic: 32
Reading for `COC(CNC(=O)c1ccc2c(c1)ncn2C1CCCCCC1)OC` under MgrA-DNA mod: -0.2
Reading for `CC(=O)Nc1cccc(SSc2cccc(NC(C)=O)c2)c1` under S aureus helic: 10

Six compounds already listed, arranged by the value under MgrA-DNA mod, high to low:
mol	S aureus helic	MgrA-DNA mod
CN=C1S/C(=C\c2ccc(N3CCCC3)cc2)C(=O)N1C	-5	2.9
CC(=O)Nc1cccc(SSc2cccc(NC(C)=O)c2)c1	10	1.6
CCC(C(=O)NCC1CCCO1)c1ccccc1 (stereo not drawn)	13	0.1
CCn1cnc2cc(NC(=O)c3cc(OC)c(OC)c(OC)c3)ccc21	2	-2.4
CCOC(=O)c1ccc(Cl)c(N=Cc2ccccc2O)c1	/	-3.0
COc1ccccc1OCCNC(=O)C1CCCCC1	2	-3.9

Bioassay records (PubChem BioAssay)

Not all compounds are listed. The share of hits here may be higher or lower than overall.
